# Rango-impB inh = qHTS Assay for Inhibitors of Rango (Ran-regulated importin-beta cargo) - Importin beta complex formation. Importin subunit beta-1 (Homo sapiens), Q14974. Rango CFP/YFP FRET sensor + importin beta, 45 min. Potency, µM (top dose mostly 92.2 µM), for inactives: at the top dose inhibition of complex formation. 0.031% of 340,000 active; active = rising FRET ratio curve, often small or poorly fitted; inconclusive = mostly compound fluorescence or quenching in the first reads; inactive = flat curves in all reads;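 further: potency means the concentration at half of the fitted maximal effect; 0% = DMSO wells and 100% = buffer wells lacking importin beta; nearly all actives have a fitted effect of over 15% in size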
#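 FRET biosensor Rango (snurportin 1 IBB between N-terminal EYFP and C-terminal Cerulean), 50 nM in PBS/1 mM DTT/0.02% Tween-20/0.1% BSA, preincubated 5 min RT with compound; 0.125 microM importin beta added, 45 min RT, CFP/YFP FRET ratio read.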
# miR-21 reporter = qHTS Assay for Modulators of miRNAs and/orActivators of miR-21; HeLa miR-21 FLuc reporter, luciferase, 48 h; Potency, µM (titrated, usually from 38.3 µM), without a hit: at the highest dose reporter change, positive = more light; 340,000 tested, under 10 active; AID 2288, 2010; active = well fitted rising curve with a large enough effect; inconclusive = small, poorly fitted or top-dose-only effect; inactive = no such curve, though single readings can be large or run the other way;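 further: % of control where 0% means no effect; miR-21 action dims this reporter so a rising signal means less miR-21 action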
#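 HeLa cells endogenously expressing miR-21, stably carrying CMV-driven firefly luciferase with a downstream miR-21 binding site, 2000 cells/well. Titrations up to approximately 40 uM, 48 hours; luciferase luminescence read.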
# GLA inh pH 4.5 = qHTS Assay for Inhibitors of Human alpha-Galactosidase at pH 4.5; purified enzyme, 4-MU-alpha-Gal fluorescence, pH 4.5; activity change, negative = inhibition, % at 105 µM; 230,000 tested, under 10 active; AID 1467, 2008; Alpha-galactosidase A (Homo sapiens), P06280; inconclusive = small, poorly fitted or top-dose-only inhibition, or a rising curve; inactive = flat fitted curve, though single readings scatter; no compound was filed as active;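 further: 0% = full activity with enzyme and -100% = basal without enzyme; dose as in the result columns while the protocol names 77 µM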
# Target sequence (P06280 whole entry, looked up): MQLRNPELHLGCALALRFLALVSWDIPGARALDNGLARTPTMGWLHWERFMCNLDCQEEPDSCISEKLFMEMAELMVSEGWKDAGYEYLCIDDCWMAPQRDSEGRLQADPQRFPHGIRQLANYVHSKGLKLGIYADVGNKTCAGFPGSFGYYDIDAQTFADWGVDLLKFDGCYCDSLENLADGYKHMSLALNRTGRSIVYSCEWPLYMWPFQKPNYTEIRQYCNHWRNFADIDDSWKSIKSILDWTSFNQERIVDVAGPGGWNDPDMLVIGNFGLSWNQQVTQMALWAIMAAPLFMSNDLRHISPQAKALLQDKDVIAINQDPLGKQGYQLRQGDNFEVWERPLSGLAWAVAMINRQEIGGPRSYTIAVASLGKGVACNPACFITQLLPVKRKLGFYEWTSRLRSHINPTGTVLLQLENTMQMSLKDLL
# Rango dissoc inh = qHTS Assay for Inhibitors of RanGTP induced Rango (Ran-regulated importin-beta cargo) - Importin beta complex dissociation; 0.071% of 340,000 active; Biochemical FRET Rango-importin beta, RanGTP-induced dissociation; Potency, µM (titrated, usually from 46.1 µM), inactives show top-dose activity change, negative = inhibition; active means falling FRET ratio curve, often poorly fitted, with flat reads before Ran was added; inconclusive means other falling curves, or compound fluorescence or quenching; inactive means flat or rising ratio curve;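 further: potency means the concentration at half of the fitted maximal effect; % of control where 0% means no effect; nearly all actives have a fitted effect of over 45% in size; -100% = wells without RanGTP and RCC1; the record marks most hits as doubtful in a second field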
#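 FRET read at 45 min, room temperature: inhibitors block the CFP/YFP signal rise when RanGTP (0.6 uM Ran, 2 mM GTP, 0.2 uM RCC1) frees Rango (0.1 uM) from importin beta (0.25 uM). Pre-read after 5 min compound exposure flags interference.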
# * marks the source's active call; other numbers are inactive results; ? = inconclusive; . = no result given; & = joins results of further samples; [ ] = remark or other dose.
SMILES,Rango-impB inh,miR-21 reporter,GLA inh pH 4.5,Rango dissoc inh
CCOc1ccc(CCN2C(=S)N([C@@H](CC(C)C)CN3CCCC3CN3C(=S)NC[C@@H]3Cc3ccc(O)cc3)C[C@@H]2CC(C)C)cc1 (stereo not given in full),0.1%,.,.,40%
Cc1cccc2cc(C(c3nnnn3C3CCCC3)N3CCOCC3)c(=O)[nH]c12 (stereo not given),-3.8%,-2%,8,-3%
NS(=O)(=O)c1ccccc1NC(=O)c1c(O)c2ccccc2[nH]c1=O,-2.5%,-83%,.,16%
CCC(C)[C@@H](N)C(=O)N/N=C/c1ccc2ncccc2c1 (stereo not given in full),1.8%,-10%,2,-1%
CCOc1ccc(CN2CCN(Cc3cccn3-c3nccs3)CC2CCO)cc1 (stereo not given),0.5%,-4%,-2,-7%
COc1cc([N+](=O)[O-])ccc1NC(=O)COC(=O)c1ccc(NC(N)=O)cc1,-2.8%,-2%,6,-9%
COc1ccccc1CCNC(=O)C(=O)c1cn(CC(=O)N2CCCC2)c2ccccc12,1.2%,-37%,.,-8%
c1ccc(-c2cc(N3CCOCC3)nc(-c3ccccc3)n2)cc1,2.3%,-4%,-6,-12%
O=C(Nc1nccs1)C1CC(=O)N(Cc2ccco2)C1 (stereo not given),1.2%,2%,-16[21.1 µM],7%
O=C(CSc1nnc(C2COc3ccccc3O2)o1)N1CCCCC1 (stereo not given),0.9%,-27%,-7,-10%
CCOc1ccc(-c2nc(CCl)cs2)cc1OC,-3.7%,-52%,-3,10%
C=CCSc1ncc(C#N)c(N)n1,6.5%,-6%,1,-16%
CCNC(=O)c1sccc1-n1cccc1,-4.1%,0%,-8,-1%
C[C@@H]1NC(=O)[C@H](CCCN=C(N)N)NC(=O)c2cc([N+](=O)[O-])cc(I)c2OCC[C@@H](C(=O)NC(CC(=O)O)C(N)=O)NC1=O (stereo not given in full),.,-8%,-5,.
COc1cc2c(cc1OC)C(C)N(C(=O)c1cccs1)CC2 (stereo not given),0.0%,17%,1,0%
CC(=O)c1cc(CN2CCCCC2)cc(OC(C)C)c1,0.5%,-8%,-3,-2%
Cc1cccc(-n2c(SCC(=O)Nc3nonc3C)nnc2-c2ccoc2C)c1,-0.4%,-4%,1,1%
CC(C)CN=C(NS(=O)(=O)c1ccccc1)C(Cl)(Cl)Cl,5.3%,?,-9,19%
CCOc1ccc(S(=O)(=O)N2CCC(C(=O)NCc3ccncc3)CC2)cc1C,-1.5%,-1%,.,-1%
O=C1c2ccccc2-c2c1cccc2C(=O)N1CCCCCC1,1.0%,-5%,9,2%

# By substructure, the entries above with a thiophene ring, fused or not.
SMILES,Rango-impB inh,miR-21 reporter,GLA inh pH 4.5,Rango dissoc inh
CCNC(=O)c1sccc1-n1cccc1,-4.1%,0%,-8,-1%
COc1cc2c(cc1OC)C(C)N(C(=O)c1cccs1)CC2 (stereo not given),0.0%,17%,1,0%

# Single records, from the list above. Values in the order: Rango-impB inh | miR-21 reporter | GLA inh pH 4.5 | Rango dissoc inh
# Listed for CC(C)CN=C(NS(=O)(=O)c1ccccc1)C(Cl)(Cl)Cl : 5.3% | ? | -9 | 19%
# Listed for O=C1c2ccccc2-c2c1cccc2C(=O)N1CCCCCC1 : 1.0% | -5% | 9 | 2%

# The list goes on:
SMILES,Rango-impB inh,miR-21 reporter,GLA inh pH 4.5,Rango dissoc inh
FC(F)(F)c1cccc(Sc2cc(C(F)(F)F)nc(-c3ccccn3)n2)c1,-1.2%,2%,-32,11%
C[C@]12c3[nH]c4cc(-c5ccco5)ccc4c3CCN1C(=O)[C@@H](CC(=O)NCCc1ccccn1)C[C@@H]2C(=O)N1CCOCC1,-2.1%,.,.,-11%
CCCOc1cccc(-c2cc(C(=O)NNC(=S)NCC)c3ccccc3n2)c1,-0.2%,-8%,-12,0%
CCOc1ccc(C(=O)CCC(=O)O)cc1,-0.6%,-1%,4,9%
COc1ccccc1N1CCN(C(=O)c2ccc3c(c2)CCN3S(C)(=O)=O)CC1,-3.9%,1%,.,-11%
CCc1sc(C(=O)NC2CCN(C)CC2)cc1Br,0.2%,-12%,-6,1%
COc1ccc(NC(=O)c2cccc(NC(=O)c3ccccc3)c2)cc1,?,-16%,.,-4%
Cc1ccc(-n2nc3c(c2NC(=O)c2ccc4c(c2)OCO4)CS(=O)C3)cc1 (stereo not given),-2.0%,-5%,8,12%
Cc1c(C)c2cc(Cl)c(OCc3nn[nH]n3)cc2oc1=O,-6.9%,-4%,-6,-12%
Nc1nonc1-n1nnc(C(=O)N/N=C/C=C/c2ccccc2)c1CSC1=NCCS1,4.2%,9%,-14,5%
Cc1ccc(CS(=O)Cc2ccc(C(=O)NCc3ccc4c(c3)OCO4)o2)cc1 (stereo not given),-0.9%,4%,.,-3%
Cc1ccc(-n2nnnc2C(=Cc2ccc(N(C)C)cc2)c2nnnn2-c2ccc(C)cc2)cc1,?,-1%,3,?
O=C(NCCN1CCOCC1)c1cc([N+](=O)[O-])cc([N+](=O)[O-])c1,-1.4%,0%,.,14%
O=C(O)c1cc(-n2nnnc2SCc2ccc([N+](=O)[O-])cc2)ccc1Cl,0.0%,-1%,.,-2%
CC(C)CCNC(=O)CN(Cc1cccs1)C(=O)CCC(=O)Nc1nccs1,0.0%,-1%,-7,-2%
CCc1ccc(NC(=O)CCNC(=O)Cn2ccc3ccccc3c2=O)cc1,-4.8%,0%,.,-13%
N/C(CN1CCCC1=O)=N\OC(=O)c1ccc(Cl)c(Cl)c1,1.4%,-32%,-14,7%
COc1ccc(NC(=O)C2CC2)cc1NS(=O)(=O)c1ccc(F)cc1,0.9%,-6%,1,2%
COc1ccccc1NS(=O)(=O)c1ccc(N/N=C/c2ccccc2OCC(=O)O)c([N+](=O)[O-])c1,-0.8%,0%,-8,15%
O=C(Nc1cccc(O)c1)c1cc(-c2cccs2)on1,-1.7%,-27%,.,-8%

# Continued, starting with the last three of the part before.
SMILES,Rango-impB inh,miR-21 reporter,GLA inh pH 4.5,Rango dissoc inh
COc1ccc(NC(=O)C2CC2)cc1NS(=O)(=O)c1ccc(F)cc1,0.9%,-6%,1,2%
COc1ccccc1NS(=O)(=O)c1ccc(N/N=C/c2ccccc2OCC(=O)O)c([N+](=O)[O-])c1,-0.8%,0%,-8,15%
O=C(Nc1cccc(O)c1)c1cc(-c2cccs2)on1,-1.7%,-27%,.,-8%
Cc1cccc(-c2ccc3c(c2)C2CC3CCN2)c1 (stereo not given),-1.1%,.,.,-7%
O=C(c1ccccc1)N1CCN(C2CC(=O)N(CCc3ccccc3)C2=O)CC1 (stereo not given),-6.9%,0%,3,-2%
COC(=O)Cn1c(=NC(=O)CSCC(=O)NC2CCCCC2)sc2cc(OC)ccc21,-4.7%,-1%,7,-14%
Brc1ccccc1-c1nnc(SCc2nc3ccccc3s2)o1,?,-61%,-5,-6%
CCN(C(=O)C1CCCN1S(=O)(=O)c1cccc2nsnc12)c1ccccc1 (stereo not given),2.8%,0%,1,-12%
CN(CC(=O)Nc1c(Cl)cccc1Cl)C(=O)CNC(=O)c1ccc2c(c1)OCO2,0.3%,.,.,-11%
Cn1c(COc2ccc(Cl)cc2Cl)nnc1SCC(=O)NCC1CCCO1 (stereo not given),-1.5%,0%,.,-8%
CCCN1C(=O)c2ccccc2NC1c1cc(OC)c(OC)c(OC)c1 (stereo not given),-0.8%,-5%,5,-4%
Cc1cccc(N2C(=O)CC(c3ccc(F)cc3)C3=C2COC3=O)c1 (stereo not given),1.3%,0%&-9%,-20,-9%
COC(=O)c1c(S(=O)(=O)N2CCOCC2)c(C)n(C)c1C,-2.2%,0%,.,32%
Cc1ccc(CCNC(=O)C2CCC(=O)N2CCc2ccccc2)cc1 (stereo not given),-0.8%,1%,.,-8%
Cc1ccc(OCCN2C(=O)C(=O)c3cccc(C)c32)cc1,?,-3%,7,-3%
CC(C)c1[nH]nc2c1C(c1cccc(OC(=O)N3CCOCC3)c1)C(C#N)=C(N)O2 (stereo not given),-0.8%,-2%,5,-5%
CC(C)C(NS(=O)(=O)c1cccc(C(F)(F)F)c1)C(=O)N1CCc2ccccc2C1 (stereo not given),1.1%,3%,.,-7%
O=C(Nc1cccc(C(=O)N2CCCc3ccccc32)c1)c1ccccc1,3.4%,13%,.,-11%
CCOC(=O)c1c(N2C(=O)Nc3ccccc3N2O)sc2c1CCCC2,0.1%,0%,-7,-5%
COC(=O)C1=C(C)N(c2ccc(OC)c(OC)c2)C(=O)/C1=C\c1cccs1,0.1%,-4%,-14,-5%
CC(C)c1ccc(NC2CCCN(C(=O)CN3CCOC3=O)C2)cc1 (stereo not given),0.2%,-3%,.,-2%
O=[N+]([O-])c1cc(S(=O)(=O)C(F)(F)F)ccc1NCC1CCCO1 (stereo not given),0.1%,-30%,.,5%
COc1ccc(/C=C2\SC(=S)NC2=O)cc1OS(=O)(=O)c1ccc(NC(C)=O)cc1,0.6%,-3%,-16,-7%
CCOC(=O)c1oc2ccccc2c1NC(=O)COC,-0.1%,-4%,-3,0%
C=CCOc1c(CNc2ccc3[nH]c(=O)[nH]c3c2)cccc1OC,?,-5%,-2,?
CCOc1ccccc1NC(=O)c1cc(-c2ccncc2)nc2c(Cl)cccc12,0.1%,-1%,7,2%
CCOC(=O)Cn1c(=O)c2c(nc(N3CCOCC3)n2C)n(C)c1=O,-4.0%,0%,7,?
CCOC(=O)c1c(C)nc2ccccn12,-3.1%,-4%,-2,16%
NC(=O)CC(NC(=O)Cc1cccc2ccccc12)c1ccc(NC2CCCCCC2)c([N+](=O)[O-])c1 (stereo not given),1.3%,-1%,4,-1%
COc1ccccc1OCc1n[nH]c(=S)n1Cc1ccccc1,0.2%,-3%,3,-2%
O=C(NC1CC1(c1ccccc1)c1ccccc1)c1ccccc1 (stereo not given),2.2%,.,.,6%
CCc1ccc(/C(C)=N/NS(=O)(=O)c2ccc(OC)cc2)s1,-3.7%,2%,.,-16%
Nc1nnc(SCC(=O)NC23CC4CC(CC(C4)C2)C3)s1,-2.2%,-12%,0,7%

# Three of the entries above in order of their number in GLA inh pH 4.5, low to high:
structure | Rango-impB inh | miR-21 reporter | GLA inh pH 4.5 | Rango dissoc inh
CCOC(=O)c1oc2ccccc2c1NC(=O)COC | -0.1% | -4% | -3 | 0%
CCOC(=O)c1c(C)nc2ccccn12 | -3.1% | -4% | -2 | 16%
COc1ccccc1OCc1n[nH]c(=S)n1Cc1ccccc1 | 0.2% | -3% | 3 | -2%

# Additional results follow:
SMILES,Rango-impB inh,miR-21 reporter,GLA inh pH 4.5,Rango dissoc inh
CCCc1cc(C(N)=O)c(NC(=O)c2cc(C)on2)s1,-2.4%,-18%,-16,-27%
CCN1CCN(C(=O)C2CCC(=O)N(Cc3cccc(C(F)(F)F)c3)C2)CC1 (stereo not given),1.4%,-3%,.,8%
NC(=O)c1ccccc1NC(=O)CN1CCCCCC1,-1.6%,-8%,.,-6%
CC1(CC(=O)NNC(=O)Nc2ccccc2)OCCCO1,0.7%,-5%,5,3%
C=CCN1C(=O)/C(=C2/Sc3ccccc3N2C)SC1=Nc1c(C)n[nH]c1C,-0.9%,-22%,-2,9%
COc1ccc2[nH]c(=O)c(CN(C(=O)c3ccccn3)c3ccccc3)cc2c1,-1.9%,-6%,5,0%
Cc1cc(C)c2oc(=O)cc(CN3CCC(C)CC3)c2c1,-0.8%,0%,.,-1%
COc1ccc(NC(=O)COC(=O)CNC(=O)C2CCCCC2)cc1,-4.3%,-1%,-1,2%
CCc1cccc(NC(=O)C(NC(=O)C2CCCCC2)C(C)C)c1 (stereo not given),-2.4%,0%,5,11%
CCCCOc1ccc(C(=O)CCN2CCCCC2)cc1,-2.2%,0%,4&-7,-9%

# Compound activity (PubChem)

# An excerpt (hit frequency here may not be typical).
